# High-throughput results deposited in PubChem by several laboratories.
# HSV replic up: increases HSV replication in cells. maximum fold increase. HSV replication augmentation in cells, fold increase. actives 0.005% (n = 220,000);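 active = peak rise of 1.5-fold or more in the series; tested in PC3 cells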;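 note: first round at 10 µM; read as green reporter fluorescence; hits show the peak of a series up to 25 µM; 1 = signal of infected wells without compound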
# Insulin prom inh: TRM-6 insulin promoter activity inhibition | TRM-6 cells (human fetal islet line), insulin promoter-eGFP reporter, imaging; reporter expression induced with tamoxifen | inhibition, % at 2 µM | actives 0.9% (n = 130,000) | AID 1273;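 active = inhibition above the mean plus 3 SD, with well images judged a real hit on visual review, cut at about 60% in these data, passing the limit was not always enough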
# RGS16-Gao HTS: regulators of human RGS16-Galphao interaction | O15492+P09471 | actives 0.38% (n = 220,000) | binding response (% of control), % at 10 µM | bead-based flow cytometry RGS16-Galphao binding, fluorescence; actives lie on both sides;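 active = below 25% or above 175%, edge rows of some plates excepted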;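 note: Galphao activated by GDP with aluminum fluoride before binding; 100% = wells without compound and 0% = beads without RGS; some results beyond the cut were filed as inactive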
# PKD1 kinase inh: PKD1 (human) kinase inhibition | Q15139 | PKD1 kinase fluorescence polarization assay | inhibition, %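 (about 10 µM by stock and volumes)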 | actives 0.056% (n = 200,000);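 active = inhibition of 50% or more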;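 note: controls were vehicle for no effect and a reference inhibitor for full effect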
# Target sequence (Q15139 whole entry, looked up): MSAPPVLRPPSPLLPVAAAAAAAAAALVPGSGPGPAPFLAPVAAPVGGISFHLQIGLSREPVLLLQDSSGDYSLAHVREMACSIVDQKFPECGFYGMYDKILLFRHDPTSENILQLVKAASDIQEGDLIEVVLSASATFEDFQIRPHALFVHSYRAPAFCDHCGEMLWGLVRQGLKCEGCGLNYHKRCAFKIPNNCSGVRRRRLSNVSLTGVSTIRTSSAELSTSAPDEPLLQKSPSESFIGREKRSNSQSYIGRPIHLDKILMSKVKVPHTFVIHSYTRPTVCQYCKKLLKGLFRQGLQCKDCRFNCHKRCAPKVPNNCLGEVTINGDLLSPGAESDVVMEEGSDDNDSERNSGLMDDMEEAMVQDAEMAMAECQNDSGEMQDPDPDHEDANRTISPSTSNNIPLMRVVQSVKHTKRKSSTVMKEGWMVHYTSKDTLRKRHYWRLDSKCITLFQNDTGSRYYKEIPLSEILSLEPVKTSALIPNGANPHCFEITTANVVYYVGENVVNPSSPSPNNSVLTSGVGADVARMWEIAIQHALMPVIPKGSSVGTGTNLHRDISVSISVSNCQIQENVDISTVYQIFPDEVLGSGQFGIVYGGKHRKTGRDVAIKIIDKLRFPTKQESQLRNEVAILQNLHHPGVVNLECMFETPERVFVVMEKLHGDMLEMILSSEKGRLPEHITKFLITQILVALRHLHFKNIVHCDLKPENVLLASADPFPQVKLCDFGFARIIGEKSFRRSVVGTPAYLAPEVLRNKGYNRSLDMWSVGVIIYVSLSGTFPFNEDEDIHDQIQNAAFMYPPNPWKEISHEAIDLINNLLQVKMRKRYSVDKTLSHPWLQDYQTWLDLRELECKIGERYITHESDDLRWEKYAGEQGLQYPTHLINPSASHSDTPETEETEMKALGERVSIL
# GALR2 agonist: GALR2 (human) receptor agonism. GALR2-expressing cells, agonist activation read-out. activation, %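 (tested at 5 µM)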. actives 0.48% (n = 140,000). AID 803;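 active = above mean plus 3 SD of all compounds, about 5% in these data, not always enough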;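 note: 0% = vehicle buffer wells and 100% = reference agonist at full effect; tested in CHO reporter cells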
# Insulin prom inh cell count: second read-out of Insulin prom inh, no call of its own (marks repeat the call); normalized cell count, %; measured here: cell count, toxicity; reference of the scale not given here;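 cells exposed to compound for 48 h; stained nuclei by imaging scaled within each plate; lower means fewer cells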
# HSV replic up primary fold: recorded beside HSV replic up, whose call it bears; fold increase; compound at 10 µM; measured here: primary screen fold increase 10 uM; tested in PC3 cells;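 GFP signal in the first replicate; 1 = infected wells without compound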
# * hit, by the source's call; i = inactive; . = not tested or not shown.
compound	HSV replic up	HSV replic up primary fold	Insulin prom inh	Insulin prom inh cell count	RGS16-Gao HTS	PKD1 kinase inh	GALR2 agonist
CCN1C(=O)c2ccccc2Sc2ccc(C(=O)NCCN3CCOCC3)cc21	.	.	30	129	107	-6	-0.2
COC(=O)c1ccn(Cc2ccccc2Cl)n1	i	0.92	.	.	95	5	.
CCOC(=O)Cn1c(=O)c(-c2ccccc2NCc2ccccc2)nc2ccccc21	i	0.9	-8	170	.	-4	-3.1
COC(=O)c1[nH]c(C)c(/C(O)=C2\C(=O)C(=O)N(CCN(C)C)C2c2cccs2)c1C (configuration not stated)	i	0.74	-17	124	103	8	-0.4
CCc1c(C)nc(N)n2c(SCC(=O)N3CCCC(C)C3)nnc12 (configuration not stated)	i	1.1	-182	139	93	-12	0.2
Cc1noc(C)c1S(=O)(=O)Nc1ccc(C(=O)O)cc1	i	1	.	.	100	-14	-1.5
CCOC(=O)CNC(=O)CSc1nc(Cc2cccs2)nc2ccccc12	i	0.88	10	114	103	-6	-4.0
COc1ccc(C2C(C(=O)N3CCCCC3)c3ccccc3C(=O)N2C)cc1 (configuration not stated)	i	0.93	-43	126	101	-2	-2.1
Cc1ccc(Nc2cc(C)nn2-c2nc(C)cc(=O)[nH]2)cc1	i	0.5	19	30	94	8	-2.7
CCOC(=O)Cn1c(=O)cc(C)c2cccc(C)c21	i	0.99	.	.	100	-4	.
COc1cc(/C=N/NC(=O)C(N)=O)cc(OC)c1O	i	0.94	.	.	98	2	.
CCn1ccc(C(=O)Oc2ccc(C(C)C)cc2)n1	i	0.8	-144	38	103	4	0.8
O=C(CSc1ccc2ccccc2n1)NCCC1=CCCCC1	i	0.91	.	.	103	-1	0.2
O=C(CSc1nnc(-c2ccco2)n1-c1ccccc1)N1CCN(C(=O)c2ccco2)CC1	i	0.98	.	.	114	2	-2.0
Cc1cc(C)nc(NC(=S)Nc2cccc(Cl)c2Cl)c1	i	1	47	122	100	3	.
Cc1ccccc1-n1c(C)nnc1SCc1cc(=O)oc2ccc3ccccc3c12	i	0.95	-7	100	102	3	1.1
Cc1ccccc1Cn1c2ccccc2c2cnn(CC(=O)NCc3ccco3)c(=O)c21	i	0.83	.	.	128	.	.
COc1ccc([N+](=O)[O-])cc1NC(=O)COC(=O)/C=C/c1ccco1	i	0.91	.	.	112	3	-0.8
CC1CCCN(Cc2nc(Cc3ccccc3Cl)no2)C1 (configuration not stated)	i	1	.	.	98	-7	.
COC(OC)c1ccnc(-c2ccc(OC(C)=O)cc2)n1	i	0.88	33	141	97	3	.
CCOc1ccccc1N1CC(C(=O)Nc2ccc3c(c2)OCCO3)CC1=O (configuration not stated)	i	1.1	.	.	101	4	.
Cc1ccc(NC(=O)Cn2nc(-c3ccccc3Cl)ccc2=O)c(Br)c1	i	0.85	0	97	84	-4	.
CC(=O)c1ccc(NC(=S)NCCc2ccc(S(N)(=O)=O)cc2)cc1	i	0.99	.	.	101	-3	.
COCCn1nnnc1C(c1cc2cccc(C)c2[nH]c1=O)N1CCN(c2ccccc2F)CC1 (configuration not stated)	i	1	-43	100	99	-13	-0.6
COC(=O)c1cc(OC)c(OC)cc1NC(=O)c1cnccn1	i	1	10	119	108	-6	-2.1
Cc1cc(C(=O)CCl)c(C)n1CCc1ccccc1	i	1	33	61	93	-1	.
O=C(NCc1n[nH]c(=S)n1-c1ccccc1)c1cccs1	i	1.1	-5	117	100	-6	.
C=C1CCN(C(C(=O)OC)C(C)C)S(=O)(=O)c2ccccc21 (configuration not stated)	i	0.72	.	.	79	.	.
CCOC(=O)c1sc2nc(C3CC3)cc(-c3ccc(F)cc3)c2c1N	i	0.87	.	.	104	-7	-1.1
COc1ccc(Cl)cc1-c1nc(N)nc(N(C)C)n1	i	1	-4	150	99	1	-0.4
CC1(C)Cc2c(c(N3CCOCC3)nc3sc4c(NN)ncnc4c23)CS1	.	.	-30	53	101	4	0.9
COc1ccc(N2C(=O)C(CN3CCCCC3)C2c2ccccc2)cc1 (configuration not stated)	i	0.89	-73	167	104	9	.
COC(=O)c1cc(NS(=O)(=O)c2ccc3c(c2)CCC(=O)N3)cc(C(=O)OC)c1	i	0.95	-31	127	97	-9	-0.5
COc1ccc(C2c3sc(=O)[nH]c3SC3C(=O)N(c4ccccc4)C(=O)C32)cc1 (configuration not stated)	i	1.5	.	.	102	-5	-1.9
Cc1cc(C)cc(C(=O)Nc2ccc3[nH]c(=O)[nH]c3c2)c1	i	1	.	.	101	0	.
O=c1c([N+](=O)[O-])c(NCCN2CCCCCC2)c2ccccc2n1-c1ccccc1	i	0.96	9	107	107	-5	1.1
COC(=O)c1c(NC(=O)CN2CCC3(O)CCCCC3C2c2ccc(OC)cc2OC)sc(C)c1C (configuration not stated)	i	1.1	.	.	105	-6	-2.2
CC(=O)Nc1ccc(OC(=O)c2ccc(Cl)cc2)cc1	i	1.1	-33	105	113	-14	-0.8
COCCOC(=O)c1c(C)n(C)c2ccc(OC(=O)c3cccs3)cc12	i	0.95	.	.	105	-3	-1.2
COc1ccc(C(=O)NNC(=O)c2ccc(S(=O)(=O)N3CCCCC3)cc2)cc1	i	0.85	.	.	106	-3	.

# Gathered by group, the entries above with a carbonyl joined to an NH by a bond outside any ring
compound	HSV replic up	HSV replic up primary fold	Insulin prom inh	Insulin prom inh cell count	RGS16-Gao HTS	PKD1 kinase inh	GALR2 agonist
CCN1C(=O)c2ccccc2Sc2ccc(C(=O)NCCN3CCOCC3)cc21	.	.	30	129	107	-6	-0.2
CCOC(=O)CNC(=O)CSc1nc(Cc2cccs2)nc2ccccc12	i	0.88	10	114	103	-6	-4.0
COc1cc(/C=N/NC(=O)C(N)=O)cc(OC)c1O	i	0.94	.	.	98	2	.
O=C(CSc1ccc2ccccc2n1)NCCC1=CCCCC1	i	0.91	.	.	103	-1	0.2
Cc1ccccc1Cn1c2ccccc2c2cnn(CC(=O)NCc3ccco3)c(=O)c21	i	0.83	.	.	128	.	.
COc1ccc([N+](=O)[O-])cc1NC(=O)COC(=O)/C=C/c1ccco1	i	0.91	.	.	112	3	-0.8
CCOc1ccccc1N1CC(C(=O)Nc2ccc3c(c2)OCCO3)CC1=O (configuration not stated)	i	1.1	.	.	101	4	.
Cc1ccc(NC(=O)Cn2nc(-c3ccccc3Cl)ccc2=O)c(Br)c1	i	0.85	0	97	84	-4	.
COC(=O)c1cc(OC)c(OC)cc1NC(=O)c1cnccn1	i	1	10	119	108	-6	-2.1
O=C(NCc1n[nH]c(=S)n1-c1ccccc1)c1cccs1	i	1.1	-5	117	100	-6	.
Cc1cc(C)cc(C(=O)Nc2ccc3[nH]c(=O)[nH]c3c2)c1	i	1	.	.	101	0	.
COC(=O)c1c(NC(=O)CN2CCC3(O)CCCCC3C2c2ccc(OC)cc2OC)sc(C)c1C (configuration not stated)	i	1.1	.	.	105	-6	-2.2
CC(=O)Nc1ccc(OC(=O)c2ccc(Cl)cc2)cc1	i	1.1	-33	105	113	-14	-0.8
COc1ccc(C(=O)NNC(=O)c2ccc(S(=O)(=O)N3CCCCC3)cc2)cc1	i	0.85	.	.	106	-3	.

# An unsorted share of the library; 1.3% or so of the library scored in one or more.
